Assay outcomes from PubChem.
Mtb betalactam: beta-lactam sensitization of Mtb H37Rv, H37Rv. inhibition, % at 25 µM. M. tuberculosis H37Rv growth with meropenem, percent inhibition; hits of this screen are not shown here. 330,000 compounds, 0.27% hits. AID 434955, 2010;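 active = about 74% or more and at least 40 points above the plate without the antibiotic, then above 30% in a dose series; inconclusive = first-round hits that could not be retested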;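 note: growth measured after seven days incubation then overnight dye step; 0% = bacteria only wells and 100% = bacteria with antibiotic; twin plates without the antibiotic show which effects depend on it; some results filed as inactive read as strong as hits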
Active calls of the source: *.

For COc1ccc(C(=O)COC(=O)c2cc(=O)c3ccccc3o2)cc1 the results were Mtb betalactam 1.
Screening COc1cc(OC)cc(-c2cc3cc(F)ccc3cn2)c1 returned Mtb betalactam 4.
Screening CCC/C=N/O returned Mtb betalactam 9.
For C=C(C(=O)Oc1ccccc1C(C)(C)C)c1ccccc1 the results were Mtb betalactam 57.
For Cc1noc(C)c1NC(=O)Nc1ccc2c(c1)C(=O)N([C@H](C)CO)C[C@H](C)[C@@H](CN(C)C(=O)Nc1ccc(C(F)(F)F)cc1)O2 the results were Mtb betalactam -5.
`Cc1cc(Cl)ccc1NC(=O)CCN1C(=O)NC(C)(C)C1=O` gave Mtb betalactam -12.
`COc1cccc(CNCC(=O)NC(=O)NC2CCCC2)c1` gave Mtb betalactam 2.
Cc1ccc(S(=O)(=O)NC(=O)c2cccc(N(C)C)c2)cc1 was read as Mtb betalactam -4.
For C[C@H](CO)N1C[C@H](C)[C@@H](CN(C)C(=O)Nc2ccccc2)Oc2c(NS(=O)(=O)c3cn(C)cn3)cccc2C1=O the results were Mtb betalactam 4.
For O=C(C1CCN(S(=O)(=O)c2cccc3nonc23)CC1)N1CCCCC1 the results were Mtb betalactam -2.
For CN1C(=O)/C(=C/c2ccc(OCc3ccc(C(=O)O)cc3)c(Cl)c2)NC1=S the results were Mtb betalactam 1.
Cc1ccc(C)c(NC(=O)COC(=O)CNC(=O)C2CCCCC2)c1 was read as Mtb betalactam -2.
Screening CC1CCCCN1C(=S)NC(=O)c1ccco1 (stereo not drawn) returned Mtb betalactam 12.
For COc1ccc(/C=N/NC(=O)CNS(=O)(=O)c2ccccc2)cc1 the results were Mtb betalactam 1.
COc1ccc(NC(=O)COC(=O)C23CC4CC(CC(O)(C4)C2)C3)cc1Cl was read as Mtb betalactam -3.

Structural class, those above containing fluorine.
Screening COc1cc(OC)cc(-c2cc3cc(F)ccc3cn2)c1 returned Mtb betalactam 4.
For Cc1noc(C)c1NC(=O)Nc1ccc2c(c1)C(=O)N([C@H](C)CO)C[C@H](C)[C@@H](CN(C)C(=O)Nc1ccc(C(F)(F)F)cc1)O2 the results were Mtb betalactam -5.

Returning to the listing with the four entries that preceded the break.
Cc1ccc(C)c(NC(=O)COC(=O)CNC(=O)C2CCCCC2)c1 was read as Mtb betalactam -2.
Screening CC1CCCCN1C(=S)NC(=O)c1ccco1 (stereo not drawn) returned Mtb betalactam 12.
For COc1ccc(/C=N/NC(=O)CNS(=O)(=O)c2ccccc2)cc1 the results were Mtb betalactam 1.
COc1ccc(NC(=O)COC(=O)C23CC4CC(CC(O)(C4)C2)C3)cc1Cl was read as Mtb betalactam -3.
CN(C(=O)CC1C(=O)NCCN1Cc1ccc2ccccc2c1)C1CCOCC1 (stereo not drawn) was read as Mtb betalactam inconclusive.
`Cc1n[nH]c(C)c1S(=O)(=O)N(C)Cc1ccco1` gave Mtb betalactam 6.
`O=C(O)Cc1ccc(S(=O)(=O)N2CCCC2)s1` gave Mtb betalactam -3.
For CC[C@@]1(C(=O)OC)N[C@H](CN(C)C(=O)c2ccc(F)cc2)[C@@H]2C(=O)N(C)C(=O)[C@@H]21 the results were Mtb betalactam 3.
`O=C(CCNC(=O)c1ccccc1Cl)NN=Cc1ccccc1[N+](=O)[O-]` gave Mtb betalactam -3.
`O=C1C=C(c2ccc(Br)c3ccccc23)C[C@@H](c2ccc3c(c2)OCO3)C1` gave Mtb betalactam 18.
CN(Cc1ccccn1)C(=O)c1ccc2nc(Cc3cccc(Cl)c3)oc2c1 was read as Mtb betalactam inconclusive.
Cc1nc(SCC(=O)NCC2CCCO2)c2c(C)c(C)sc2n1 (stereo not drawn) was read as Mtb betalactam 1.
`O=C(c1ccccc1)c1ccc(-n2cnnc2)c([N+](=O)[O-])c1` gave Mtb betalactam -1.
For COc1ccc(NC(=O)CN(C)CC(=O)N2CC(=O)Nc3ccccc32)cc1 the results were Mtb betalactam -6.
`Cc1cc(C)c(NC(=O)CNC(=O)c2ccccc2SCC(=O)N2CCCC2)c(C)c1` gave Mtb betalactam 1.
Screening Cc1cc(Cl)cc(C)c1OCC(=O)N1CCN(c2ncccn2)CC1 returned Mtb betalactam -1.
For C=CCn1c(SC(C)C(=O)c2c(N)n(C)c(=O)n(C)c2=O)nnc1-c1ccoc1C (stereo not drawn) the results were Mtb betalactam -1.
Screening O=C(NCCCn1ccnc1)C1CCN(S(=O)(=O)c2cc([N+](=O)[O-])ccc2Cl)CC1 returned Mtb betalactam 0.
Cc1ccc(S(=O)(=O)NC2CC3CCC2C3)cc1 (stereo not drawn) was read as Mtb betalactam -3.

Filtered by structure, the compounds so far containing a thiophene ring, fused or not.
`O=C(O)Cc1ccc(S(=O)(=O)N2CCCC2)s1` gave Mtb betalactam -3.
Cc1nc(SCC(=O)NCC2CCCO2)c2c(C)c(C)sc2n1 (stereo not drawn) was read as Mtb betalactam 1.

A run of entries from further up:
Screening COc1cc(OC)cc(-c2cc3cc(F)ccc3cn2)c1 returned Mtb betalactam 4.
Screening CCC/C=N/O returned Mtb betalactam 9.
For C=C(C(=O)Oc1ccccc1C(C)(C)C)c1ccccc1 the results were Mtb betalactam 57.

More compounds
For CN(Cc1ccccc1)C(=O)CN1C(=O)NC2(CCCCCCC2)C1=O the results were Mtb betalactam 1.
Screening CCCc1nc2nc(C)c(NS(=O)(=O)c3ccc(Cl)cc3)c(=O)n2[nH]1 returned Mtb betalactam 1.
O=C(COC(=O)/C=C/c1ccccc1)NCc1cccs1 was read as Mtb betalactam -6.
For CCOC(=O)C1CCN(C(=O)C(CCSC)NC(=O)c2ccccc2OC)CC1 (stereo not drawn) the results were Mtb betalactam -8.
For O=C(NCc1ccc(F)cc1)c1cccc2c1C(=O)c1ccc(Cl)cc1S2(=O)=O the results were Mtb betalactam 0.
O=C(CN1C(=O)NC2(CCCCC2)C1=O)N1CCOCC1 was read as Mtb betalactam 2.
Nc1cccc(CP(=O)(c2ccccc2)c2ccccc2)c1 was read as Mtb betalactam 4.
For CN(C)S(=O)(=O)c1cc(C(=O)Nc2ccn(C)n2)c(Cl)cc1Cl the results were Mtb betalactam 8.
For Cc1c(C(=O)OCC(=O)NCCc2ccc(S(N)(=O)=O)cc2)oc2ccccc12 the results were Mtb betalactam -1.
`CCOc1cc(/C=N/NC(=O)c2ccccc2OCc2ccc(F)cc2)ccc1O` gave Mtb betalactam -5.
`CC(C)C(=O)Nc1cc(S(=O)(=O)N2CCOCC2)ccc1N1CCCCC1` gave Mtb betalactam 0.
O=C(COC(=O)/C=C/c1cccc([N+](=O)[O-])c1)Nc1cccnc1Cl was read as Mtb betalactam 1.
Screening O=C(COC(=O)c1ccc(Br)o1)Nc1ccc(F)cc1[N+](=O)[O-] returned Mtb betalactam 49.
COc1ccc(OC)cc1 was read as Mtb betalactam -4.
CNC(=O)c1cccc(NC(=O)c2cc(-c3ccccc3)nc3c2cnn3C(C)C)c1 was read as Mtb betalactam 77.
CC(OC(=O)CNC(=O)c1ccc(Br)cc1)C(=O)NC1CCCCC1C (stereo not drawn) was read as Mtb betalactam -10.
COc1cc(OC)cc(-c2c(C#Cc3ccsc3)c3cc(-c4ccc(OC)nc4)ccc3n2C)c1 was read as Mtb betalactam 94.
For CN(C)CCCNc1oc(-c2ccc(Cl)cc2)nc1S(=O)(=O)c1ccccc1 the results were Mtb betalactam -7.
COCC(C)n1c(SCC(=O)Nc2sccc2C(N)=O)nc2ccccc2c1=O (stereo not drawn) was read as Mtb betalactam -2.
`Cc1ccccc1C(=O)Nc1cc(C(F)(F)F)ccc1-n1cncn1` gave Mtb betalactam 0.
`O=C(CSc1nc2[nH]c(=O)cc(O)c2s1)Nc1ccc(Br)cc1` gave Mtb betalactam -11.
Screening CC(C(=O)N1CCOCC1)c1ccccc1 (stereo not drawn) returned Mtb betalactam 1.
For Cc1ccc(C)c(NC(=O)COC(=O)c2ccc[n+]([O-])c2)c1 the results were Mtb betalactam 1.
Screening CC(C)(C)OC(=O)N1CCC(C(=O)Nc2cccc(C(=O)N3CCOCC3)c2)CC1 returned Mtb betalactam 6.
`O=C(CNC(=O)c1ccc(Cl)cc1)OCCN1C(=O)c2ccccc2C1=O` gave Mtb betalactam -5.
`COC(=O)C1=C(C)N(Cc2ccccc2)C(=NCCCCO)N[C@H]1c1cccc(C(F)(F)F)c1` gave Mtb betalactam -4.
COC(=O)C1=C(c2cccc(C#N)c2)C[C@@H]2CC[C@H]1N2C(=O)NCCNC(C)=O was read as Mtb betalactam 2.
`CCCc1cc(=O)[nH]c(SCC(=O)NC2(C#N)CCCCC2)n1` gave Mtb betalactam -3.
Screening CC1CCCC(NC(=O)COC(=O)c2ccc3ncsc3c2)C1C (stereo not drawn) returned Mtb betalactam 50.
`NCCc1c(Cc2ccccc2)[nH]c2ccccc12` gave Mtb betalactam -6.
For O=C(Nc1ccc(Nc2ccccc2)cc1)c1c(F)c(F)c(F)c(F)c1F the results were Mtb betalactam 1.
`O=C(CN1C(=O)NC2(CCc3ccccc32)C1=O)Nc1ccc(Br)cc1F` (stereo not drawn) gave Mtb betalactam -5.
CC(CNC(=O)CN1C(=O)NC2(CCCCC2)C1=O)c1ccccc1 (stereo not drawn) was read as Mtb betalactam 2.
Cc1onc(-c2ccccc2)c1C(=O)OCC(=O)NC(C)c1ccc(Cl)cc1 (stereo not drawn) was read as Mtb betalactam -9.
For CCN1C(=O)c2ccc(C(=O)NCc3ccco3)cc2C1=O the results were Mtb betalactam inconclusive.
For CCC(CO)Oc1cc(NC(=O)Cc2ccccc2F)c2ncn(C(C)C)c2c1 (stereo not drawn) the results were Mtb betalactam 1.
`CC(=O)N/C(=C/C(C)C)c1ccccc1` gave Mtb betalactam -7.
`CCOc1ccc(C(=O)CC(C(=O)O)N2CCN(Cc3ccccc3)CC2)cc1` (stereo not drawn) gave Mtb betalactam -9.
Cc1cc(C(=O)OCC(=O)N(C)c2ccccc2)c2ccccc2n1 was read as Mtb betalactam -3.
Screening CC1CCCC(NC(=O)COC(=O)c2ccc(Br)o2)C1C (stereo not drawn) returned Mtb betalactam 4.
`CCS(=O)c1ccccc1C(=O)OCC(=O)Nc1ccc2ccccc2c1` (stereo not drawn) gave Mtb betalactam -3.
For CCCC(C)c1nnc(NC(=O)COc2ccc3c(c2)OCO3)s1 (stereo not drawn) the results were Mtb betalactam 4.
For Cc1ccc(NC(=O)CN(C)C(=O)CSc2ccccc2F)cc1 the results were Mtb betalactam 0.
For COc1ccc(CNC(=O)CN(C(=O)c2snc(C(N)=O)c2N)c2ccccc2F)cc1 the results were Mtb betalactam -7.
`COc1cc2c(-c3ccc4cc[nH]c4c3)c(-c3ccc(C#N)cc3)oc(=O)c2cc1OC` gave Mtb betalactam 61.
CC1CC(C)CN(C(=O)COC(=O)COc2ccccc2C#N)C1 (stereo not drawn) was read as Mtb betalactam 6.
`C=CCNC(=O)c1cccc2c1C(=O)c1ccc(N3CCOCC3)cc1S2(=O)=O` gave Mtb betalactam -1.
For COc1cc(/C=C/C(=O)c2ccc3c(c2)OCO3)cc(OC)c1OC the results were Mtb betalactam 64.
`COc1ccc2nc(SCC(=O)NC(C)c3ccccc3)[nH]c2c1` (stereo not drawn) gave Mtb betalactam 3.
COc1ccccc1C(=O)CN1C(=O)NC2(CCCc3ccccc32)C1=O (stereo not drawn) was read as Mtb betalactam 3.
`COc1ccc2cc(/C=C/C(=O)N3CCN(CC(=O)N4CCCCCC4)CC3)ccc2c1` gave Mtb betalactam 7.
Screening C=CC(COCc1ccccc1)N(CC(=O)OC)S(=O)(=O)c1cc(Br)ccc1OC (stereo not drawn) returned Mtb betalactam -6.
`CC[C@@]1(C(=O)OC)N[C@H](CN(C)C(=O)COc2ccccc2)[C@@H]2C(=O)N(C)C(=O)[C@@H]21` gave Mtb betalactam 5.
Screening O=C(NOCc1ccccc1)c1ccc([N+](=O)[O-])cc1 returned Mtb betalactam 23.
COC(=O)C1=C(c2ccc3ccccc3c2)C[C@@H]2CC[C@H]1N2C(=O)NC1CC1 was read as Mtb betalactam 6.
COc1ccc(C(=O)NNC(=O)C(NC(=O)c2cc(OC)cc(OC)c2)C(C)C)cc1 (stereo not drawn) was read as Mtb betalactam 4.
O=C(Cn1nnc(-c2ccc(Cl)cc2)n1)N1CCN(C(=O)c2ccco2)CC1 was read as Mtb betalactam 49.
`Cc1ccc(S(=O)(=O)NCCC(=O)NCC(c2ccc(F)cc2)N2CCOCC2)cc1` (stereo not drawn) gave Mtb betalactam -3.
`Cc1cccc(-n2c(SCC(=O)c3c(N)n(C4CC4)c(=O)[nH]c3=O)nnc2N2CCOCC2)c1` gave Mtb betalactam -11.
For CN(Cc1ccc(Cl)cc1Cl)C(=O)CCNC(=O)c1ccco1 the results were Mtb betalactam -11.
Screening COc1cc(OC)cc(-c2c(-c3cccs3)c3cc(-c4cnc(N)nc4)ccc3n2C)c1 returned Mtb betalactam 16.
`O=C(CCNS(=O)(=O)c1ccc(Br)cc1)NCC1CCCO1` (stereo not drawn) gave Mtb betalactam -9.
`C=CC[C@H](CC(=O)N(CCO)Cc1ccccc1)C(=O)NCCOC(=O)[C@@H](CC=C)CC(=O)OC(C)(C)C` gave Mtb betalactam -8.
`C=CC[C@@H](CC(=O)NCCO)C(=O)N[C@H](C)COC(=O)[C@@H](CC=C)CC(=O)OC(C)(C)C` gave Mtb betalactam 0.
For COc1cc(OC)cc(-c2sc3ccc(OC)cc3c2C#CCO)c1 the results were Mtb betalactam 88.
`COCCCN1C(=O)c2ccc(C(=O)OCC(=O)NCc3cccc(OC)c3)cc2C1=O` gave Mtb betalactam -2.
Screening COc1ccc(-c2sc3ccc(OC)cc3c2C#Cc2cncn2C)cc1 returned Mtb betalactam 99.

A portion of the library (hit frequency here may not be typical).
